# Screening results deposited in PubChem BioAssay by National Center for Advancing Translational Sciences (NCATS).
# aSyn rescue = rescues yeast growth from alpha-synuclein toxicity | Yeast expressing alpha-synuclein, growth rescue, BacTiter-Glo, 24 h | Potency, µM (highest dose often 46.1 µM), for inactives: top-dose growth rescue (activation), hits mostly activators | hit rate 0.14% among 370,000; further: potency means the concentration at half of the fitted maximal effect; % of control where 0% means no effect; nearly all actives have a fitted effect of over 65% in size
#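 Rescue of yeast growth: cells expressing toxic alpha-synuclein, induced in galactose at OD600 0.02, incubated with compound 24 h at 30 C. ATP luminescence quantified growth; inhibitors of toxicity appear as activators.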
# FUS suppressor = suppressors of FUS proteinopathy in yeast; AID 1347120; hit rate 0.24% among 390,000; S. cerevisiae FUS-expressing, growth rescue, OD600, 24 h; Potency, µM (series often up to 76.6 µM), inactives show at the highest dose growth rescue (activation), usual class: activators;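 further: potency means the concentration at half of the fitted maximal effect; plate controls were DMSO vehicle for no effect and reference control for full effect; nearly all actives have a fitted effect of over 55% in size; some results filed as inactive show a strong effect at the top dose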
#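 Steps: raffinose overnight preculture; dilution to OD 0.005 in 2% galactose minimal medium; compound addition (concentration series); 24hr at 30C, 99% humidity; absorbance read at 600 nm.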
# TDP-43 yeast inh = inhibitors of TDP-43 toxicity in yeast; TDP-43 expressing yeast growth rescue, BacTiter-Glo, 24 h; Potency, µM (highest dose often 46.1 µM), for inactives: at the top dose growth rescue (activation), most hits filed as activators; hit rate 1.8% among 410,000; further: potency means the concentration at half of the fitted maximal effect; % of control where 0% means no effect; nearly all actives have a fitted effect of over 50% in size
#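 Galactose-induced TDP-43 yeast, OD600=0.02, compound pinned; 24 hr, 30 deg C; BacTiter-Glo luminescence for growth. Inhibitors of TDP-43 toxicity read as activators.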
# Abeta rescue = restores growth of yeast expressing A-beta42 peptide. yeast expressing A-beta42, growth rescue, OD600, 48 h; response scale: 0% DMSO, 100% iron-clioquinol control. Potency, µM (doses to about 46.1 µM), for the others: top-dose growth rescue, usual class: activators. hit rate 0.063% among 410,000; further: potency means the concentration at half of the fitted maximal effect; nearly all actives have a fitted effect of over 55% in size
#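 Growth rescue measured by 600 nm absorbance after 48 h yeast culture at 30 C with compound. Values normalized between DMSO and an equimolar ferric chloride plus clioquinol control.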
# GLP1R ag = agonists of human GLP-1 receptor. P43220. HEK293 GLP-1R CRE-luciferase, luminescence, 4-6 h; cells express a hypersensitive GLP-1R form. hit rate 0.007% among 380,000. Potency, µM (series often up to 45.6 µM), inactives show top-dose activation, hits mostly activators; further: potency means the concentration at half of the fitted maximal effect; % of control where 0% means no effect
# Target sequence (P43220 whole entry, looked up): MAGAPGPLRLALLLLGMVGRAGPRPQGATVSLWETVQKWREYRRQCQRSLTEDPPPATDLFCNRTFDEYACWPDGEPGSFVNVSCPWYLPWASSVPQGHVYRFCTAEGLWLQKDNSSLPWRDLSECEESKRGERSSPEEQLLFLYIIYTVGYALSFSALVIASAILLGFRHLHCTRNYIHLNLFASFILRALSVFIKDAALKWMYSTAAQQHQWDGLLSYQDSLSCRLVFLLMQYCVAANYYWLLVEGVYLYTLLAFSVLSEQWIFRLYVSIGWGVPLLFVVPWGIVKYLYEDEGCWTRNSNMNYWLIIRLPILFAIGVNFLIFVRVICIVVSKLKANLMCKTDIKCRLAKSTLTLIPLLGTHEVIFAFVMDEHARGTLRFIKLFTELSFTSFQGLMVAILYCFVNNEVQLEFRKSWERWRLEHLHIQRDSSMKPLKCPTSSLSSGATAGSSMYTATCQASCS
# D3 antag = D3 dopamine receptor (human) antagonism | max response, negative = inhibition, % | P35462 | hit rate 2.5% among 360,000 | D3R cells, DiscoveRx beta-arrestin luminescence, antagonist mode; hits give low values; in the data active means max response below about -50%; inconclusive means no clear call, values can overlap the other calls; further: on the % scale 0 is the no-effect control and ±100 the full control effect; mostly tested at two doses, the higher about 12 µM
# Target sequence (P35462 whole entry, looked up): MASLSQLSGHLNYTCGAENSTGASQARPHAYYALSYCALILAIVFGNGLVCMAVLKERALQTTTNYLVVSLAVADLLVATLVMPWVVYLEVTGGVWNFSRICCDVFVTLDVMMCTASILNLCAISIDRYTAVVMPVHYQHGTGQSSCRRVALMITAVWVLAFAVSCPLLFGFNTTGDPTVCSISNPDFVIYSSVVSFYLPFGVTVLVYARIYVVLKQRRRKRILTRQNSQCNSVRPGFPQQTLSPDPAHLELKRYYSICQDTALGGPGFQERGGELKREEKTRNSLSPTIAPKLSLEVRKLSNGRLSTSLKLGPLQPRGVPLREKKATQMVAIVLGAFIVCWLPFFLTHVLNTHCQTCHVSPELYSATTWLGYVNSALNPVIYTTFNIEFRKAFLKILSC
#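 Cells plated overnight at 1500 cells/well, then exposed to library compounds with dopamine controls for 90 minutes at 37 degrees C. DiscoveRx reagent added for 30–60 minutes at room temperature; luminescence read, quantitative HTS format.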
# pAkt inh = blocks phosphorylation of Akt; Neuro2A IGF-stimulated pAkt S473 HTRF, 20 min; hits give low values; activity change, % for hits at 50 µM; hit rate 0.32% among 360,000; in the data active means activity change below about -80%; inconclusive means mostly about -51% to -80%; further: on the % scale 0 is the no-effect control and ±100 the full control effect
#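 Neuro2A cells in DMEM with 0.5% FBS, overnight at 37 deg C, given compound at single 50 µM final, then IGF (6 nM final) for 20 min at 37 deg C. Lysed; phospho-Akt Ser473 by HTRF after 24 h, 665/615 ratio.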
# GLP-1R inv ag = acts as inverse agonist at human GLP-1 receptor | P43220 | HEK293 GLP-1R CRE-luciferase, luminescence, 24 h; GLP-1R form is constitutively active | Potency, µM (highest dose often 38.3 µM), without a hit: at the highest dose activity change, negative = inhibition, hits mostly inhibitors | hit rate 1.6% among 410,000 | AID 624417; further: potency means the concentration at half of the fitted maximal effect; on the % scale 0 is the no-effect control and ±100 the full control effect; nearly all actives have a fitted effect of over 55% in size
#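 Stable HEK293 clone (constitutively active GLP-1R + cAMP-response luciferase); 200 cells/uL plated, 12 h pre-culture, compound 24 hr, 37 deg C/5% CO2; detection reagent 12 min RT; luminescence.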
# Numbers without * were called inactive; i = inactive; ? = inconclusive; nt = no result given; & = joins results of further samples; [ ] = another dose, or the depositor's remark. Unless noted, the call rests on the fitted dose curve; in most records, active means well fitted curve in the direction sought with a large enough effect; inconclusive means small, poorly fitted or top-dose-only effect, or another doubt; inactive means no such curve, though single readings can be large; an effect the other way counts as inactive or inconclusive.
no.	Compound	aSyn rescue	FUS suppressor	TDP-43 yeast inh	Abeta rescue
1	CN(C)S(=O)(=O)c1ccc(N2CCCC2)c(C(=O)NNC(=O)c2ccc(F)cc2)c1	-6%	-22%	2%	-21%
2	O=C(CN1CCN(CCC(=O)Nc2ccccc2F)CC1)Nc1ccc(Cl)cc1	-1%	nt	-13%	-7%
3	Cc1cccc2nc(Cn3c(=O)n(-c4ccc(Cl)cc4)c(=O)c4c5c(sc43)CCC5)cc(=O)n12	nt	-29%	12%	-20%
4	CC1CCCN(C2(O)C(=O)Nc3ccc(Br)cc32)C1 (configuration not stated)	?	-12%	17%	?
5	O=C(Cc1ccccc1)N/N=C/c1cc(Br)c(Br)o1	0%	18%	0%	8%
6	COCCn1c(=O)c2ccccc2c2ccccc2c1=O	2%	-9%	0%[9.22 µM]	-7%
7	Cc1cc(OCc2nc(-c3ccc(NC(=O)c4cccnc4)cc3)no2)ccc1Cl	5%	14%	1%	30%
8	Cc1ccc2sc(NC(=O)C3CC3)nc2c1C	-30%[inhibitor]	-23%	?	-25%
9	COc1ccccc1CCNC(=O)c1ccc(C)o1	-8%	-8%	-13%	-27%
10	NC(CO)C(O)c1ccc([N+](=O)[O-])cc1 (configuration not stated)	-11%	-19%	20%	6%
11	Cc1ccc(-n2c(=O)c3c4c(sc3n(Cc3ccccc3F)c2=O)CCC4)cc1C	nt	-7%	5%	-5%
12	O=[N+]([O-])c1cc(-c2n[nH]c(-c3ccccc3)n2)cc([N+](=O)[O-])c1	-12%	-2%	-11%	-23%

no.	GLP1R ag	D3 antag	pAkt inh	GLP-1R inv ag
1	6%	-3	i	34%[activator]
2	4%	-18	i	0%
3	-1%	nt	nt	12%
4	8%	13	i	?
5	16%	-23	nt	-1%
6	5%	-6	i	-18%
7	9%	10	i	7%
8	18%	23	nt	-18%
9	3%	-15	i	1%
10	?	-27	i	2%
11	nt	nt	nt	0%
12	1%	6	i	5%

# (list continues)
no.	Compound	aSyn rescue	FUS suppressor	TDP-43 yeast inh	Abeta rescue
13	CC(=O)N1CCc2cc(C(=O)CN3CCCCC3)ccc21	-7%	13%	25%	0%
14	N#Cc1ccc(/C=N/NC(=O)c2ccccc2F)cc1	5%	nt	16%	-17%
15	N#CC(c1ccncc1)(c1ncc(C(F)(F)F)cc1Cl)N1CCOCC1 (configuration not stated)	1%	8%	-2%	-25%
16	CN(C)CCSc1nc(-c2ccccc2)nc2c1COC(C)(C)C2	-2%	16%	-16%	-16%
17	O=C(O)CCCC(=O)N(Cc1ccccc1)Cc1ccccc1	2%	3%	-10%	-16%
18	C=CCSc1nnc2c(n1)[nH]c1c(C)cccc12	-30%	14%	11µM*	-2%
19	Cc1ccccc1NC(=O)C1CC(=O)N(c2ccc3c4c(cccc24)CC3)C1 (configuration not stated)	5%	18%	-9%	29%
20	O=S(=O)(Cc1c(F)cccc1Cl)c1ncn[nH]1	-1%	-5%	-20%[0.397 µM]	15%
21	CC(=O)c1ccc(NC(=O)COC(=O)CC2CC3CCC2C3)cc1 (configuration not stated)	0%	-23%	?	12%
22	COc1ccc(CNC(=O)C(CC(C)C)N2Cc3ccccc3C2=O)cc1 (configuration not stated)	nt	-5%	-7%	-18%
23	C[C@@H](NC(=O)c1nc[nH]c1C(=O)NC1CCN(C(=O)OC(C)(C)C)CC1)c1ccccc1	-6%	40%	10%	-23%
24	CC1CC(C)CN(C(=O)COC(=O)c2ccc(S(=O)(=O)N(C)c3ccccc3)cc2)C1 (configuration not stated)	5%	?	22%	4%

no.	GLP1R ag	D3 antag	pAkt inh	GLP-1R inv ag
13	5%	-12	i	8%
14	-1%	24	i	24%
15	?	1	i	-25%
16	11%	-16	nt	0%
17	2%	-14	i	92%[activator]
18	5%	8	i	64%[activator]
19	11%	12	i	-28%
20	8%	-3	i	-7%
21	-2%	?	i	-11%
22	nt	nt	nt	?
23	10%	?	i	?
24	-6%	-8	i	?

# The listing continues:
no.	Compound	aSyn rescue	FUS suppressor	TDP-43 yeast inh	Abeta rescue
25	COCCn1nnnc1C(c1cc2cc(C)ccc2[nH]c1=O)N1CCc2ccccc21 (configuration not stated)	-3%	14%	-8%	-5%
26	O=C(Nc1ccncc1)c1ccccc1F	-2%	-17%	-3%	-4%
27	CNc1nc(Cl)c(SC)c(N2CCOCC2)n1	14%	16%	-14%	5%
28	COC1CCN(Cc2cn(Cc3ccccc3)nc2-c2cc3ccccc3o2)CC1	1%	16%	-24%	-8%
29	O=S(=O)(c1ccccc1S(=O)(=O)N1CCCCC1)N1CCCCC1	-1%	9%	-28%	9%
30	C=CCn1c(CNC(=O)c2ccccc2F)nnc1SCc1nc2ccccc2c(=O)[nH]1	0%	2%	15%	-8%
31	COC(=O)C1CCCN1C(=O)c1cccs1 (configuration not stated)	0%	0%	1%	2%
32	Cc1ccc(NC2SC(=O)N(CC(=O)O)C2=O)cc1 (configuration not stated)	-13%	-10%	-5%	-10%
33	COC(=O)C1=C(C)N(Cc2ccc(OC)cc2)C(=O)C1	0%	27%	-16%	-13%
34	O=c1cc(O)nc(SCc2ccccc2Cl)[nH]1	0%	2%	12%	2%
35	COc1ccccc1N1C(=O)C2C(C(=O)c3ccccc3)=NN(c3ccc(C)cc3)C2C1=O (configuration not stated)	13%	20%	-6%	21%
36	O=C(CSc1nn(-c2ccc(Cl)cc2)c(=S)s1)N1CCN(C(=O)c2ccco2)CC1	-5%	?	-11%	9%

no.	GLP1R ag	D3 antag	pAkt inh	GLP-1R inv ag
25	-2%	12	i	2%
26	-12%	9	i	?
27	9%	?	i	13%
28	11%	-27	i	?
29	1%	7	nt	-3%
30	-1%	6	i	-5%
31	9%	-76*	i	8%
32	6%	12	i	-13%
33	6%	?	i	56%[activator]
34	-7%	-24	i	4%
35	10%	-10	i	6%
36	12%	7	i	-6%

# Further structures.
no.	Compound	aSyn rescue	FUS suppressor	TDP-43 yeast inh	Abeta rescue
37	COc1ccc(C2SCC(=O)N2c2ccc(OC)cc2)cc1 (configuration not stated)	-1%	-5%	-4%	-5%
38	O=C(NC1CCCCCC1)C1CCN(C(=O)c2ccc(Br)cc2)CC1	1%	27%	11%	9%
39	NC(=O)C(c1ccc(Sc2ccccc2)nn1)c1ccc(Cl)cc1Cl (configuration not stated)	10%	17%	12%	12%
40	O=C(O)c1ccc2nc3c(nc2c1)-c1ccccc1C3=O	11%	2%	8%	-26%
41	O=c1c(NCCc2ccc(Cl)cc2)c(-c2ccccc2)c1=O	-3%	18%	-1%	7%
42	COc1ccc(N(CC(=O)N2CCN(Cc3ccc4c(c3)OCO4)CC2)S(C)(=O)=O)cc1OC	-1%	-7%	-6%	-4%
43	O=C(Nc1ccc(F)cc1F)c1cc(-c2ccc3c(c2)OCO3)on1	-11%	-8%&-14%	10%&24%	-3%&-6%
44	COc1ccc(Cl)cc1NC(=O)c1cc(-c2ccc3c(c2)OCO3)on1	nt	-5%	12%	-9%
45	CCOCCCNC(=O)NC12CC3CC(CC(C3)C1)C2	0%	?	-12%	0%
46	COc1ccc(NC(=O)C(c2cc3c(cc2[N+](=O)[O-])OCO3)N(C)c2ccccc2)cc1 (configuration not stated)	-7%	?	-28%	-25%
47	Nc1ccc(C(=O)OC2CCOC2=O)cc1[N+](=O)[O-] (configuration not stated)	-2%	nt	13%	0%
48	O=C(Nc1cccnc1)c1ccc(COCC(F)(F)F)cc1	-16%	8%	-5%	13%

no.	GLP1R ag	D3 antag	pAkt inh	GLP-1R inv ag
37	6%	-2	i	-12%
38	2%	-1	i	?
39	11%	0	i	?
40	1%	5	i	-11%
41	5%	-21	i	29%
42	-3%	23	i	-18%
43	-1%	7	i	15%&6%
44	nt	nt	nt	1%
45	6%	11	i	0%
46	11%	-16	i	?
47	-7%	-2	i	0%
48	2%	15	i	2%

# Five entries already listed, ordered by count of non-hydrogen atoms, largest number first.
no.	Compound	aSyn rescue	FUS suppressor	TDP-43 yeast inh	Abeta rescue
42	COc1ccc(N(CC(=O)N2CCN(Cc3ccc4c(c3)OCO4)CC2)S(C)(=O)=O)cc1OC	-1%	-7%	-6%	-4%
44	COc1ccc(Cl)cc1NC(=O)c1cc(-c2ccc3c(c2)OCO3)on1	nt	-5%	12%	-9%
37	COc1ccc(C2SCC(=O)N2c2ccc(OC)cc2)cc1 (configuration not stated)	-1%	-5%	-4%	-5%
45	CCOCCCNC(=O)NC12CC3CC(CC(C3)C1)C2	0%	?	-12%	0%
47	Nc1ccc(C(=O)OC2CCOC2=O)cc1[N+](=O)[O-] (configuration not stated)	-2%	nt	13%	0%

no.	GLP1R ag	D3 antag	pAkt inh	GLP-1R inv ag
42	-3%	23	i	-18%
44	nt	nt	nt	1%
37	6%	-2	i	-12%
45	6%	11	i	0%
47	-7%	-2	i	0%

# Continued.
no.	Compound	aSyn rescue	FUS suppressor	TDP-43 yeast inh	Abeta rescue
49	c1ccc(CNc2nc3ccccc3c3nc(-c4ccccc4)nn23)cc1	nt	-7%	15%	-13%
50	Cc1nn(Cc2c(F)c(F)c(F)c(F)c2F)c(C)c1NC(=O)c1nn(C)cc1[N+](=O)[O-]	-3%	14%	-6%	-19%
51	COc1ccc(NC(=O)c2cc(-c3ccc4c(c3)OCO4)on2)cc1	-4%	11%	-9%	-10%
52	CCN1CCN(c2cc(-c3ccccc3)nc3cc(-c4cccc(F)c4)nn23)CC1	-25%	20%	0%	-18%
53	CC(C)C[C@H](NC(=O)c1[nH]cnc1C(=O)N[C@@H](C)C(=O)OCc1ccccc1)C(=O)OC(C)(C)C	7%	?	17%	6%
54	C=CCSc1n[nH]c(-c2cccs2)n1	-3%	-24%	5%	5%
55	CN(C)/C=C(\C#N)C(=O)N/N=C(\CC(=O)C(F)(F)F)c1ccco1	3%	0%	2%	-6%
56	Fc1cccc(Cc2noc(CN3CCSCC3)n2)c1	1%	3%	-5%[9.22 µM]	7%

no.	GLP1R ag	D3 antag	pAkt inh	GLP-1R inv ag
49	nt	nt	nt	-2%
50	-8%	-23	i	7%
51	8%	-5	i	19%
52	-51%[inhibitor]	?	i	2.5µM*
53	1%	-7	i	?
54	2%	-3	i	9%
55	2%	-8	i	2%
56	8%	-11	i	-4%

# A portion of the library; count on the stated rates, not on these rows.
